Source: PubChem BioAssay (ICCB-Longwood Screening Facility, Harvard Medical School)
KSHV LANA nucl: LANA-nucleosome interaction inhibition | FITC-LANA1-23 / chicken nucleosome fluorescence polarization; active compounds read low | z-score (test concentration not listed) | 51,000 compounds, 0.3% hits;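 active = both repeat wells score below -2 in polarization z-score versus plate sample wells, excluding overly bright wells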;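 note: 100 nL library stock added to about 30 µL; numbers are from one replicate; some results filed as inactive read as strong as hits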
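Assay system: FITC-LANA peptide and chicken nucleosomes; input: 240 nM purified chicken nucleosomes (480 nM peptide binding sites), final; also added: 50 nM FITC-LANA1-23 probe; medium: TEN-BT buffer, pH 7.5; doses: pin-transferred compound, 100 nL; times: 10–45 min, room temperature; technique: fluorescence polarization; replication: duplicates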
BasE inh: BasE siderophore biosynthesis inhibition; purified BasE, fluorescence polarization binding displacement; 84,000 compounds, 0.1% hits; inhibition, % (concentration not given with the values);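 active = both replicates above 25% with normal brightness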;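 note: 0% = negative plate control signal and 100% = positive plate control signal; stock transfer was 100 nL into about 30 µL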
Numbers without * were called inactive; . = no result given.

The first 4 entries (preview)
Screens in order – KSHV LANA nucl, BasE inh
1. O=C1c2ccccc2-c2nc(=O)c3c4c(sc3n21)CCCC4
 : 0.42, 7.8
2. CN1C2CCC1CC(NS(=O)(=O)c1ccc(Cl)cc1)C2 (configuration not stated)
 : 1, .
3. CCC(c1nnc(Sc2nc(C)nc3sc4c(c23)CCCC4)n1CCN1CCOCC1)N(C)C (configuration not stated)
 : ., -0.9
4. CC(=O)N1CCN(c2nc(-c3ccccc3)c3ccccc3n2)CC1
 : ., 1.4

Main list, previewed entries included:
Screens in order – KSHV LANA nucl, BasE inh
1. O=C1c2ccccc2-c2nc(=O)c3c4c(sc3n21)CCCC4
 : 0.42, 7.8
2. CN1C2CCC1CC(NS(=O)(=O)c1ccc(Cl)cc1)C2 (configuration not stated)
 : 1, .
3. CCC(c1nnc(Sc2nc(C)nc3sc4c(c23)CCCC4)n1CCN1CCOCC1)N(C)C (configuration not stated)
 : ., -0.9
4. CC(=O)N1CCN(c2nc(-c3ccccc3)c3ccccc3n2)CC1
 : ., 1.4
5. CCCNS(=O)(=O)c1cc2c3c(c1)C(C)C(=O)N3CCC2 (configuration not stated)
 : -0.95, 2.0
6. N#CCSc1nnc(-c2ccc(Br)cc2)n1C1CCCCC1
 : ., -2.7
7. CCCc1nn(-c2ccccc2)c2c1C(c1ccc(OC)cc1)C(C#N)=C(N)O2 (configuration not stated)
 : -0.83, 0.6
8. Cn1c(=O)oc2cc(S(=O)(=O)CCC(=O)NC3CCN(Cc4ccccc4)CC3)ccc21
 : ., -2.9
9. CCCCCCCC1CC(CSc2ncn[nH]2)OC1=O (configuration not stated)
 : 0.36, 2.2
10. Cc1nc2cc(N3CCN(C)CC3)c(NC(=O)C(C)(C)C)cc2c(=O)n1Cc1ccccc1
 : 0.96, -3.0
11. CCOC(=O)c1ccccc1NC(=O)c1ccc(N2CCCC2=O)cc1
 : ., -1.1
12. Cc1ccnc(SCC(=O)c2cccs2)n1
 : ., 61*
13. O=C(Oc1ccnc2cc(Cl)ccc12)N1CCCCC1
 : -0.32, 1.2
14. Nc1ncc(N=Nc2cccc(C(F)(F)F)c2)s1
 : ., 1.2
15. O=C(CN1CCCCC1)N1CCCc2ccccc21
 : 2.7, -2.7
16. COc1ccc(C2CC(=O)NN2)cc1OC1CCCC1 (configuration not stated)
 : ., -1.6
17. CCN(Cc1ccccc1)/C(=N/O)c1ccc(OC)cc1
 : ., 2.6
18. COCCNC(=O)c1ccc(CS(=O)(=O)c2ccc(OC)cc2)o1
 : -0.12, 2.2
19. O=C1NCN(c2ccccc2)C12CCN(c1nnnn1-c1ccccc1)CC2
 : 0.89, 1.5
20. Cc1ccccc1-n1c(SCCc2ccccc2)nc2ccccc2c1=O
 : ., 1.8
21. CNS(=O)(=O)c1cccc(C(=O)O)c1
 : ., 1.0
22. Cc1nc(-c2ccc(OC(F)F)cc2)cs1
 : 0.1, 0.8
23. COc1ccccc1C(c1c(C)[nH][nH]c1=O)C(C#N)C#N (configuration not stated)
 : -0.66, -0.4
24. Cc1ccc2cc(CN(C)C3CCS(=O)(=O)C3)c(Cl)nc2c1C (configuration not stated)
 : ., -2.5
25. CC(C)(C)C(=O)CSc1nc2ccccc2n1S(=O)(=O)c1ccccc1
 : -1, -0.2
26. CN(C)S(=O)(=O)c1ccc2c(c1)nc(CCC(=O)NCC1CCCCC1)n2C
 : ., -0.1
27. COC(=O)c1ccc(CSc2ncnc3sc(C)c(C)c23)o1
 : ., 1.7
28. C=CCSc1nc2sc3c(c2c(=O)n1CC=C)CCCC3
 : 1, -0.9
29. COc1cccc(-c2[nH]nc(N)c2C)c1
 : 0.26, 0.9
30. S=C(NCc1csc2ccccc12)NCC1CC1
 : ., 1.5

In a second layout: entries from further up
22. Cc1nc(-c2ccc(OC(F)F)cc2)cs1
  KSHV LANA nucl: 0.1
  BasE inh: 0.8
23. COc1ccccc1C(c1c(C)[nH][nH]c1=O)C(C#N)C#N (configuration not stated)
  KSHV LANA nucl: -0.66
  BasE inh: -0.4
24. Cc1ccc2cc(CN(C)C3CCS(=O)(=O)C3)c(Cl)nc2c1C (configuration not stated)
  KSHV LANA nucl: .
  BasE inh: -2.5
25. CC(C)(C)C(=O)CSc1nc2ccccc2n1S(=O)(=O)c1ccccc1
  KSHV LANA nucl: -1
  BasE inh: -0.2

New compounds follow.
Screens in order – KSHV LANA nucl, BasE inh
31. COc1ccc(NS(=O)(=O)c2ccc(CCN3C(=O)c4cccnc4C3=O)cc2)cc1
 : 1.6, -1.3
32. CCn1cc(S(=O)(=O)NCCc2ccccc2)cn1
 : -0.84, 1.0
33. CCC(C)NC(=O)c1ccc2c(c1)NC(=O)C(CC(C)C)N2 (configuration not stated)
 : 0.35, 1.6
34. COc1ccc(C(=O)c2c(N)sc3c2CCN(C)C3)cc1
 : 0.78, .
35. Cc1noc(C)c1CSc1ccccc1C(=O)NC(C)c1ccc2c(c1)OCCO2 (configuration not stated)
 : ., 1.2
36. Cc1ccc(OCc2nc(SCC(=O)c3ccc(S(=O)(=O)N4CCCC4)cc3)n[nH]2)cc1
 : ., 0.2
37. Cc1ccc(N(CC(=O)N2CCN(c3ccccc3)CC2)S(=O)(=O)c2c(C)n[nH]c2C)cc1
 : 0.38, 2.3
38. NC1=Nc2ccccc2CC1
 : ., 2.7
39. Nc1ccc(C(=O)N(CCO)CCO)cc1
 : 1.2, -0.8
40. NC(=O)SCc1nc2c3ccccc3ncn2n1
 : ., 1.7
41. NCCS(=O)(=O)c1ccc(C(F)(F)F)cn1
 : 0.24, 0.1
42. CCOC(=O)C1CCN(Cc2cn[nH]c2-c2ccc(C)cc2)CC1
 : 0.14, -3.0
43. CCn1c2ccccc2c2cc(/C=N/O)ccc21
 : -1, 5.0
44. CC(Sc1nnnn1C)C(=O)NC(C)c1ccc(Cl)cc1Cl (configuration not stated)
 : ., 1.6
45. CCC(CO)NS(=O)(=O)c1cc(-c2nnc(OC)c3ccccc23)ccc1C (configuration not stated)
 : -0.18, -1.4
46. Cc1n[nH]c(=O)c2c(NC(=O)COC(=O)Cc3c(F)cccc3Cl)oc(C)c12
 : ., 3.4
47. CCc1ccccc1OCC(=O)OCC(=O)Nc1cc(C)on1
 : ., -0.1
48. CC1Cc2ccccc2N1C(=O)CCS(=O)(=O)c1ccc2c(c1)n(C)c(=O)c(=O)n2C (configuration not stated)
 : 1.7, -1.7
49. COc1cc(C)c(S(N)(=O)=O)cc1C(C)C
 : 0.005, 4.4
50. Cc1ccc(NCC(=O)N2CC3(C)CC2CC(C)(C)C3)cc1F (configuration not stated)
 : ., 3.1
51. CC(C)(CO)NCC(=O)Nc1ccc(Cl)cn1
 : -0.99, 0.9
52. CC(C)N(Cc1ccccc1)C(=O)Cn1ncc2c(=O)oc3ccccc3c21
 : 0.86, 0.0
53. Cc1ccc(/C=C/C(=O)OCc2nc3ccccc3c(=O)n2CC#N)o1
 : ., -0.4
54. Cc1cc(C(=O)OCC(=O)c2ccc(NC(=O)CC(C)C)cc2)no1
 : ., 2.1
55. O=C(COC(=O)C1CC(O)CN1S(=O)(=O)c1ccc(F)cc1)Nc1nccs1 (configuration not stated)
 : ., 3.1
56. CC[C@H]1OC(=O)[C@H](C)C(=O)[C@H](C)[C@@H](O[C@@H]2O[C@H](C)C[C@H](N(C)C)[C@H]2O)[C@](C)(OC)C[C@@H](C)C(=O)[C@H](C)[C@@H]2N(CCCCn3cnc(-c4cccnc4)c3)C(=O)O[C@@]21C
 : 0.038, .
57. COc1ccc(CC(=O)NCc2cc(C)oc2C(F)(F)F)cc1OC
 : ., 2.7
58. CC(c1ccccc1)C(CC(=O)O)C(=O)O (configuration not stated)
 : ., 4.6
59. N#Cc1c(N)nc(Sc2ccc(Cl)cc2)c(C#N)c1-c1ccccc1
 : ., 1.7
60. O=S1(=O)CC(NCc2ccccc2)C(Nc2ccccc2)C1 (configuration not stated)
 : -0.03, -0.6

Carrying on:
Screens in order – KSHV LANA nucl, BasE inh
61. Oc1cccc(NCC(O)Cn2ccc3ccccc32)c1 (configuration not stated)
 : 0.8, 3.6
62. COc1cccc2cc(C(=O)O)oc12
 : -0.39, .
63. O=C(OCC(=O)N1CCCC1)C1=COCCO1
 : ., 3.2
64. c1ccc2sc(-c3ccn[nH]3)cc2c1
 : -0.4, .
65. CC1(C)CC(=O)C=C(NNC(=O)C2COc3ccccc3O2)C1 (configuration not stated)
 : ., 0.7
66. COc1cccc(NC(=O)C(C)N(C)c2ccccc2)c1 (configuration not stated)
 : ., -0.1
67. Clc1ccc(NCc2ccc3c(c2)OCO3)cc1
 : -1.5, 1.4
68. CC(Sc1nncn1-c1ccccc1)C(=O)N(C)c1ccccc1 (configuration not stated)
 : ., 2.0
69. CCCc1nc(SCC(=O)c2ccc3c(c2)NC(=O)CO3)[nH]c(=O)c1CC
 : -0.1, -4.3
70. CN(C)c1ccc(/C=N/NC(=O)c2ccccc2)cc1
 : 0.35, -0.9
71. CC(=O)NC(C(=O)Nc1ccc(F)c(Cl)c1)C(C)C (configuration not stated)
 : ., 0.1
72. O=C(NCCCN1CCCC1=O)C1CC(=O)N(Cc2ccco2)C1 (configuration not stated)
 : ., -2.0
73. CCc1ccc(/C(C#N)=C/C=C/c2ccccc2)cc1
 : ., 1.6
74. Oc1ccc(-c2nnc(-c3ccc(O)cc3)nn2)cc1
 : 0.59, 24
75. O=C1CC(=O)CC2(CCCC2)C1
 : ., -1.6
76. c1ccc(OCCCn2c3ccccc3c3nc4ccccc4nc32)cc1
 : ., 0.9
77. COc1ccc(CCNC(=O)CCNc2ccccc2C)cc1OC
 : ., 0.8
78. O=c1cc(-c2ccccc2)oc2ccc(Cl)cc12
 : ., 1.0
79. O=C(c1cc2nc(-c3ccccc3)cc(C(F)(F)F)n2n1)N1CCCC1
 : -0.6, 1.5
80. CCOC(=O)c1cc(CC)sc1NC(=O)c1ccco1
 : ., 0.4
81. CC(NC(=O)C12CC3CC(CC(C3)C1)C2)C(=O)NN (configuration not stated)
 : ., 1.1
82. CN(CC(=O)NC1CCCc2ccccc21)C1CCCCC1 (configuration not stated)
 : ., -0.3
83. O=C(O)/C(=C\c1ccccc1)c1ccccc1
 : ., 1.1
84. COC(=O)CCC(=O)Nc1ccc(-c2nc3ccccc3[nH]2)cc1
 : -1.3, 0.1
85. CCc1c(C(=O)Nc2ncn(Cc3cccc(C)c3)n2)csc1C
 : -0.35, 1.7
86. Cn1ccnc1SCC(=O)N1c2ccccc2-c2c(ssc2=S)C1(C)C
 : 1.1, -0.5
87. O=S(=O)(c1ccc(-c2ccccn2)s1)N1CCCCC1
 : ., 0.8
88. O=C(NCCC(=O)N(c1ccccc1)c1nc2ccccc2s1)c1ccco1
 : ., -0.6
89. O=C(NCc1cccs1)c1cc(-c2ccco2)on1
 : -0.65, -0.4
90. Cc1ccc(Oc2ncccc2NC(=O)c2ccc3c(c2)OCCCO3)c2c1CCC2
 : ., 0.6

Later entries
Screens in order – KSHV LANA nucl, BasE inh
91. COc1ccc(-c2nc3cc(OC)c(OC)cc3c(=O)o2)cc1
 : -0.34, 3.7
92. Cc1sc2ncn(CC(=O)NCC3COc4ccccc4O3)c(=O)c2c1S(=O)(=O)N1CCOCC1 (configuration not stated)
 : 0.25, 0.5
93. CNCc1nc2ccccc2c(=O)[nH]1
 : ., -0.1
94. COc1cc(C)nc(N2CCCC(C(=O)Nc3ccccc3Br)C2)n1 (configuration not stated)
 : -1.5, 1.2
95. CCOC(=O)C1=C(C)NC(=O)CC1c1cc2c(cc1Br)OCO2 (configuration not stated)
 : 0.11, 0.9
96. COc1cccc(CNC(=O)C2CCN(c3ncccn3)CC2)c1
 : 0.52, 5.0
97. CCn1c(C(=O)N2CCCC(C(=O)NCCc3ccc(S(N)(=O)=O)cc3)C2)cc2sccc21 (configuration not stated)
 : 0.071, 3.1
98. OCc1ccc(OCCOc2cccc3cccnc23)cc1
 : 0.51, -4.0
99. CC(OC(=O)C1Cc2ccccc2CN1S(C)(=O)=O)C(=O)Nc1ncc(Cl)cc1Cl (configuration not stated)
 : ., 1.1
100. CCCc1cc(=O)oc2cc(OC(=O)c3cccnc3N3CCCC3)ccc12
 : ., -2.2
101. CC(N)C(O)c1cccc(O)c1 (configuration not stated)
 : 0.13, -0.5
102. CCS(=O)CCSc1nc(-c2ccc(C)cc2)cc(-c2ccccc2)c1C#N (configuration not stated)
 : ., 1.6
103. CC1CC(C)CN(S(=O)(=O)c2ccc(C(=O)NN3CCOCC3)cc2)C1 (configuration not stated)
 : -0.32, -0.2
104. c1cncc(CSc2nnc3ccc(-c4ccncc4)nn23)c1
 : 0.32, 3.0
105. Cc1ccc(N2C(=S)N(C)C3CS(=O)(=O)CC32)cc1 (configuration not stated)
 : -0.93, -1.1
106. COc1ccccc1CNC(=O)CSc1nc2c(cnn2-c2cccc(C)c2)c(=O)[nH]1
 : ., 2.4
107. CCCNC(=O)Cn1c(=O)cnc2ccccc21
 : ., 0.7
108. CCn1nc(C(=O)NCCC(C)C)c2ccccc2c1=O
 : ., -3.1
109. C=CCN(C(=O)/C=C/c1ccco1)c1nc(-c2ccccc2)cs1
 : ., 0.2
110. COc1cc(OC)cc(C2NCCc3c2[nH]c2ccccc32)c1 (configuration not stated)
 : 0.44, -5.1
111. COc1cccc(OC(C)C(=O)O)c1 (configuration not stated)
 : -0.11, 1.1
112. CC(C)=CCC1=C(O)c2ccccc2C(=O)C1=O
 : 0.74, 2.7
113. O=C(O)C(Cc1ccccc1)n1cnnn1 (configuration not stated)
 : 0.42, 0.3
114. CCCc1nc2ccccc2c(C(=O)OCc2nnc(-c3cc(OC)c(OC)c(OC)c3)o2)c1CC
 : ., 0.9
115. O=C(CC(NCc1cccnc1)C(=O)O)NN(c1ccccc1)c1ccccc1 (configuration not stated)
 : -0.18, 5.7
116. COc1ccccc1C(=O)Nc1ccncc1
 : 0.56, -3.5

This is a subset. The share of hits here may be higher or lower than overall.
